Bioassay records (PubChem BioAssay)
MgrA-DNA mod – S. aureus MgrA-DNA binding modulation. fluorescence polarization. inhibition, %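 (about 10 µg/mL by stock and volumes)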. hit rate 0.13% among 84,000;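 active = above 50% in either of two replicates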;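 note: 0% = protein plus DNA without compound and 100% = DNA alone without protein; higher means less MgrA bound to DNA so lower polarization; one replicate is shown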
Sa helicase inh – blocks Staphylococcus aureus DNA helicase | purified S. aureus helicase, fluorescence unwinding assay; about half of the hits fall short of the stated cut | AID 485395 | hit rate 0.05% among 120,000 | inhibition, %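 (tested at about 80 µM)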;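 active = both duplicates at 50% or more, or one of them with a favoured structure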;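 note: 0% = mean of negative control wells and 100% = mean of positive control wells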
Starred values were filed as active, the others as inactive; x = not tested or not shown. These rows are one share of the data; the hit share may differ from the screen's.

SMILES	Sa helicase inh	MgrA-DNA mod
CSc1nc(NS(=O)(=O)c2cc(Cl)sc2Cl)nn1C	5	x
CCOC(=O)c1cn(C)c2ccccc2c1=O	9	4.5
Cc1ccccc1Nc1cccc2nonc12	-21	x
CCc1nnc(NC(=O)CSC2=NCCS2)s1	5	-0.7
CCOC(=O)c1cnc2ccc(OCC)cc2c1NCCCN1CCOCC1	13	-1.4
Cc1nc2ccccc2nc1SCC(=O)c1ccccc1	-14	x
Cc1cccn2cc(CNS(=O)(=O)c3cccc(F)c3)nc12	2	-1.4
COc1cc2c(cc1OC)C(C(=O)NCc1ccc3c(c1)OCO3)C1c3ccccc3CCN1C2=O (configuration not stated)	-28	x
Cc1cc(Cl)ccc1OC(C)C(=O)NCCCn1ccnc1 (configuration not stated)	5	x
OCCCNC(c1ccccc1)c1ccc(O)cc1 (configuration not stated)	0	0.6

Structures from the list above that contain two or more sulfur atoms (2):
SMILES	Sa helicase inh	MgrA-DNA mod
CSc1nc(NS(=O)(=O)c2cc(Cl)sc2Cl)nn1C	5	x
CCc1nnc(NC(=O)CSC2=NCCS2)s1	5	-0.7

More compounds follow:
SMILES	Sa helicase inh	MgrA-DNA mod
O=C(Cc1cccc2ccccc12)NCCN1CCOCC1	5	-1.8
CN(C)CCCNS(=O)(=O)c1cc(C(F)(F)F)cc(C(F)(F)F)c1	x	1.5
CC1(C)Cc2c(c(-c3ccco3)nc3sc4c(NC5CCCCC5)ncnc4c23)CO1	16	x
Oc1ccc(N=Cc2ccccc2O)cc1	-4	4.9
CCn1c(C)[n+](CC)c2ccc(S(=O)(=O)N3CCCCC3)cc21	27	x
C#CCO/N=C1/CCCc2nonc21	x	1.5
O=C(Nc1ccc2nc(-c3ccccn3)[nH]c2c1)C1CCCCC1	12	2.8
Cc1ccc(Nc2c(F)c(F)c(F)c(F)c2C(=O)O)c(C)c1	-22	x
CCN(c1ccccc1)S(=O)(=O)c1ccc(N(C)Cc2cccs2)nc1	-13	x
CC(=O)Nc1cc(Cl)ccc1C(=O)O	x	2.3
CC(C)NC(=O)N1CCN(c2ccc(C(F)(F)F)cc2[N+](=O)[O-])CC1	x	2.8
O=C1C=C(c2ccccc2)OC(c2ccccc2)O1 (configuration not stated)	2	0.4
COC(=O)CSC1=C(C#N)C(=O)NC(c2ccc(O)c(OC)c2)S1 (configuration not stated)	-9	x
CC(=O)Nc1ccc2c(c1)nc(CN1CCCCC1)n2C	3	x
Clc1ccc(-c2onc3cc(-c4ccccc4)ccc23)cc1	15	0.9
O=C(NC(=S)Nc1ncn[nH]1)c1ccccc1	21	x
CCCC12CCC(O)(CC1)C/C2=N\NS(=O)(=O)c1ccc(C)cc1	6	-0.8
COc1cc(C2=N/C(=C\c3ccc(Br)cc3)C(=O)O2)cc(OC)c1OC	x	2.9
Cc1ccc(NC(=O)CSC2=NN3CCS(=O)(=O)N=C3S2)c(C)c1	8	x
O=C(Cc1ccccc1)Nc1ccc(I)cn1	16	1.4

Part of the list above in order of SMILES length, ascending:
SMILES	Sa helicase inh	MgrA-DNA mod
O=C1C=C(c2ccccc2)OC(c2ccccc2)O1 (configuration not stated)	2	0.4
CC(=O)Nc1ccc2c(c1)nc(CN1CCCCC1)n2C	3	x
CCCC12CCC(O)(CC1)C/C2=N\NS(=O)(=O)c1ccc(C)cc1	6	-0.8

(more compounds)
SMILES	Sa helicase inh	MgrA-DNA mod
CC(C)(C)C1CCc2onc(C(=O)Nc3ccc(C#N)cc3)c2C1 (configuration not stated)	7	x
N#Cc1cccc(CSc2nnc(Nc3ccccc3)n2-c2ccccc2)c1	18	1.6
CCNC(=O)c1cc(Br)ccc1Cl	8	-0.8
C#CC1(NS(=O)(=O)c2cc(Cl)ccc2Cl)CCCCC1	x	0.5
CCOC(=O)C(Sc1nnc(-c2cc(OC)cc(OC)c2)o1)c1ccccc1 (configuration not stated)	1	x
c1ccc(N2CCN(c3ccnc(N4CCN(c5ccccc5)CC4)n3)CC2)cc1	-13	x
CCOC(=O)C1CCCNC1=O (configuration not stated)	x	-0.6
COc1ccc(OCc2nc(C#N)c(NCCc3ccccc3)o2)cc1	-30	x
CN1C(=O)NC(=O)C1(C)C	-7	x
Cc1ccc(/C=C2\SC(=S)N(CCCC(=O)O)C2=O)cc1	-10	x

Copied from the listing (seven entries):
SMILES	Sa helicase inh	MgrA-DNA mod
CC(C)(C)C1CCc2onc(C(=O)Nc3ccc(C#N)cc3)c2C1 (configuration not stated)	7	x
N#Cc1cccc(CSc2nnc(Nc3ccccc3)n2-c2ccccc2)c1	18	1.6
CCNC(=O)c1cc(Br)ccc1Cl	8	-0.8
C#CC1(NS(=O)(=O)c2cc(Cl)ccc2Cl)CCCCC1	x	0.5
CCOC(=O)C(Sc1nnc(-c2cc(OC)cc(OC)c2)o1)c1ccccc1 (configuration not stated)	1	x
c1ccc(N2CCN(c3ccnc(N4CCN(c5ccccc5)CC4)n3)CC2)cc1	-13	x
CCOC(=O)C1CCCNC1=O (configuration not stated)	x	-0.6

Next records follow.
SMILES	Sa helicase inh	MgrA-DNA mod
COC(=O)CSc1nnc(Cc2cc(=O)[nH]c(=O)[nH]2)n1-c1ccc(OC)cc1	21	x
CCOC(Cn1ccc(=O)[nH]c1=O)OCC	-7	1.3
Cc1ccc(C2Nc3ccc4ccccc4c3C3=C2C(=O)CC(C)(C)C3)cc1 (configuration not stated)	14	-6.4
Cc1[nH]c2ccccc2c(=O)c1CN1CCCCCC1	-8	x
COc1ccc(Br)cc1CN(C)C(C)C(=O)N1CC(C)OC(C)C1 (configuration not stated)	-12	x
c1ccc(Cn2c(CSc3nnnn3C3CCCCC3)nc3ccccc32)cc1	-17	x
O=C(CSc1nnc(COc2ccccc2)o1)NCc1ccccc1	3	0.5
Cn1nc(NC(=O)C2CCC2C(=O)O)c2ccccc21 (configuration not stated)	x	-3.5
CCC(C)(C(=O)NC1CCCC1)N(C)C(=O)c1ccc2c(c1)OCO2 (configuration not stated)	10	x
O=c1[nH]c2cc(Cl)ccc2n(Cc2ccccc2)c1=O	8	-1.2
Nc1nc2c(o1)oc1nc(-c3ccccc3)cc(-c3ccccc3)c12	23	-1.8
COc1ccc(OCC(O)CNC(=O)c2ccc(C(F)(F)F)nc2C)cc1 (configuration not stated)	x	-1.9
Cc1ccc(-c2csc(N3N=C(c4ccc([N+](=O)[O-])cc4)CC3=O)n2)cc1	x	2.3
COC(=O)c1ccc(C=Nc2ccc3oc(-c4ccc(C)cc4)nc3c2)cc1	7	-0.7
CCOc1ccc(NC(=O)[C@H](C(C)CC)N2Cc3ccccc3C2=O)cc1 (some centres not stated)	7	0.3
Cc1cc(C)n(CCc2nc3c4ccccc4nc(=S)n3[nH]2)n1	3	0.2
O=C(NCCc1ccccc1)c1cccs1	11	4.9
O=c1oc2ccccc2c(O)c1C=NCc1ccccn1	0	x
CCS(=O)(=O)Nc1cc(C(C)(C)C)ccc1OC	3	0.0
FC(F)(F)Oc1ccc(-n2[nH]nnc2=S)cc1	-2	1.0
CCC12CCCN3CCc4c(n(c5ccccc45)C(=O)C1)C32 (configuration not stated)	-17	x
O=C(Nc1ccc(C(F)(F)F)cc1)N1C2CCC1CC(O)(c1cccnc1)C2 (configuration not stated)	1	-1.8
CCC(=O)/C=C1/Sc2ccc(OC)cc2N1CC	16	x
CCSc1nncc(-c2ccccc2)n1	-4	x
O=C1CCC(=O)N1N1C(=O)C2C3c4ccccc4C(c4ccccc43)C2C1=O (configuration not stated)	9	-2.9
COc1ccc(C2C3C(=O)N(Cc4ccccc4)C(=O)C3ON2c2ccccc2)cc1O (configuration not stated)	16	x
CC(C)NC(=O)COn1nnc2ccc(Cl)cc21	1	x
NC(=O)c1ccc(-n2nnnc2Oc2ccccc2C(=O)N2CCOCC2)cc1	14	-0.2
O=C(CNc1nnnn1-c1ccccc1)Nc1ccc(F)c(F)c1F	-7	x
CC1CC(C)CN(C(=O)c2ccc(CSc3nc4ccncc4[nH]3)cc2)C1 (configuration not stated)	6	-0.2
O=C(NC1=NCCS1)C1COc2ccccc2O1 (configuration not stated)	-5	x
O=C(CCNC(=O)c1ccccc1Cl)Nc1nccs1	-14	x
CCC(C)NC(=O)Cn1c(=O)n(-c2ccccc2)c(=O)c2c3c(sc21)CCCC3 (configuration not stated)	9	x
COc1ccc(-c2nn(-c3ccccc3)cc2C(=O)N2CCCCC2)cc1OC	18	x
CC1(C)Cc2c(nn(-c3ccccc3)c(=O)c2C#N)CO1	-6	x
CN1C(=O)c2ccc(C(=O)O)cc2CC1c1ccccc1 (configuration not stated)	14	x
O=C(CCN1C(=O)c2ccccc2C1=O)Nc1ccc(S(=O)(=O)Nc2ncccn2)cc1	15	x
Fc1ccc(-c2nc3ccccc3[nH]2)cc1	-20	x
CSc1cccc(NC(=O)CSCc2ccc(Cl)cc2)c1	x	-1.4
COc1ccccc1Nc1ccc(N=Cc2ccc(F)c(F)c2)cc1	4	-1.0
Cc1cccc(CN2C(=O)/C(=C\c3ccc(C(=O)N4CCCC4)cc3)Oc3ccccc32)c1	5	3.0
O=C(c1ccc(Cl)cc1)n1c(=O)oc2cc(Cl)ccc21	18	0.4
CCCCNC(=O)C1CCC(=O)N1Cc1ccccc1Cl (configuration not stated)	18	x
N#Cc1cc2c(nc1SCC(=O)Nc1cccc(C(F)(F)F)c1)CCC2	x	-1.2
c1ccc(C2CC(c3ccccc3)n3nnnc3N2)cc1 (configuration not stated)	-5	-2.1
CCCCC(=O)Nc1nn2c(-c3cccc(C)c3)nnc2s1	3	1.1
Cc1cccc(C)c1NC(=S)NCc1cccnc1	x	2.2
CCCCN1C(=O)/C(=C(\C#N)C(N)=O)c2ccccc21	-22	-0.1
COc1cccc(-c2noc(C(C)Oc3ccccc3)n2)c1 (configuration not stated)	4	1.3
CC(C)C(=O)Nc1ccc(CN2CCOCC2)cc1	0	9.0

Further structures.
SMILES	Sa helicase inh	MgrA-DNA mod
Cc1ccc(SCC(=O)N2CCN(c3ccc(C(F)(F)F)cc3[N+](=O)[O-])CC2)cc1	x	2.0
CC1CCCCC1n1c(SCC(=O)c2ccc(Br)s2)nnc1-c1cccnc1 (configuration not stated)	-2	x
O=C(O)C1CCC(Cn2c(=S)[nH]c3ccccc3c2=O)CC1 (configuration not stated)	-6	x
CC1CC(C)(C)N(C(=O)c2ccccc2F)c2ccccc21 (configuration not stated)	5	3.2
CC(=O)Nc1ccc(/C=C2/C(=O)N(CCC#N)C=C2C)cc1	2	x
COc1ccc(Cc2nn3c(C(F)(F)F)nnc3s2)cc1OC	-8	x
CCCNC(=O)Cn1c2ccccc2c2cn[nH]c(=O)c21	4	x
Cc1cn2c(=O)c(C(=O)NC3=NCCS3)cnc2s1	19	x
O=C(c1ccccc1)c1ccccn1	10	x
O=C(O)CSCC(=O)Nc1ccccc1-c1ccccc1	15	x
CCc1ccc(-n2[nH]c(=O)c(/C=c3/c(C)c(C#N)c4nc5ccccc5n4c3=O)c2O)cc1	10	-0.8
CSc1ccc(CCNC(=O)Nc2cn(C)c(=O)c3ccccc23)cc1	10	4.2
CCOC(=O)c1c(C)oc2c1c1c(c3ccccc32)OCN(C(C)C)C1	16	x
O=C(c1ccc(O)cc1)N1Cc2ccccc2NC1=S	-15	0.7
O=C1CC(c2cccs2)Cc2nc(NCCN3CCOCC3)ncc21 (configuration not stated)	-1	x
CC(=O)Nc1ccc2c(c1)ncn2-c1ccccc1	12	x
COc1ccc(NC(=O)CCCn2c(=O)c3sccc3n(CC(=O)C(C)(C)C)c2=O)cc1	12	-0.8
CCN(CC)CCn1c(=O)[nH]c2cc(C(=O)NC3CCCC3)ccc21	19	0.5
O=C(CCC(=O)N1CCCCc2ccccc21)N1CCC2(CC1)OCCO2	-18	x
COc1cccc(OCC(=O)NC(C)C)c1	1	x
C(=Nc1ccc(Cc2ccc(N=Cc3ccccn3)cc2)cc1)c1ccccn1	x	-0.7
C=CCN(C(=O)C(C)Sc1nc2ncccc2o1)c1ccccc1 (configuration not stated)	18	x
CC1=C(CC(=O)O)c2cc(F)ccc2/C1=C/c1ccc(S(C)=O)cc1 (configuration not stated)	x	-2.2
O=C(Cn1cnc2c(oc3ccccc32)c1=O)Nc1ccccc1F	-2	0.3
COc1ccc(-c2nc(-c3cccs3)no2)cc1	18	-1.6
CCN(CC(=O)Nc1ccc(Br)cc1)CC(=O)Nc1ccc(NC(C)=O)cc1	11	x
Cn1nnnc1SCC(=O)Nc1ccc(C(=O)N2CCN(Cc3cccs3)CC2)cc1	-6	x
OCCNc1nnc2c(n1)[nH]c1ccccc12	24	6.8
CC(NC(=O)Cc1ccccc1)P(=O)(O)c1ccccc1 (configuration not stated)	-15	x
CCc1ccc(NC(=O)Nc2nnc(N(C)Cc3ccccc3)s2)cc1	15	-0.6

Four records picked at random from those above:
SMILES	Sa helicase inh	MgrA-DNA mod
Nc1nc2c(o1)oc1nc(-c3ccccc3)cc(-c3ccccc3)c12	23	-1.8
CCCCNC(=O)C1CCC(=O)N1Cc1ccccc1Cl (configuration not stated)	18	x
COc1cc2c(cc1OC)C(C(=O)NCc1ccc3c(c1)OCO3)C1c3ccccc3CCN1C2=O (configuration not stated)	-28	x
Cc1cc(C)n(CCc2nc3c4ccccc4nc(=S)n3[nH]2)n1	3	0.2

(more compounds)
SMILES	Sa helicase inh	MgrA-DNA mod
CN(C)c1c(F)cc(C(=O)NC(=O)Nc2nnc(C(F)(F)F)s2)cc1F	9	x
COc1ccc(C(=O)CSC2=NCCCCCC2)cc1	x	-4.2
CCC(C)C12CN(C(C)=O)CC(C)(CN(C(C)=O)C1)C2=O (configuration not stated)	-17	1.4
CNC(=S)NC1CCN(Cc2ccccc2)CC1	-8	x
CC1CN(CC(O)COC(C)c2ccc(Cl)cc2)CC(C)O1 (configuration not stated)	16	x
